Screens: PubChem BioAssay, ICCB-Longwood Screening Facility, Harvard Medical School
HCMV NEC inh = inhibitors of HCMV UL50-UL53 interaction, biochemical, HTRF | 190,000 compounds, 0.15% hits | AID 1918969, 2023 | inhibition, % (no concentration beside the values) | HCMV UL50-UL53 nuclear egress complex (human cytomegalovirus) | normalized percent inhibition;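 active = both replicates at 50% or more, plus weaker picks with an unusually low signal ratio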;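 also: stock transfer was 100 nL into about 20 µL; 0% = negative control wells and 100% = wells with untagged competitor protein; inactives centre near -12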
An asterisk follows results filed as active; & = joins results of further samples. A portion of the library; count on the stated rates, not on these rows.

compound | HCMV NEC inh
CSc1nnc(CSc2ncccn2)n1-c1cccc(C(F)(F)F)c1 | 4
O=C(COC(=O)c1ccc(Br)cn1)c1ccccc1 | -1
Cc1ccc2nc(C3CCCN3c3ncc(C)c(-c4cnn(C)c4)n3)[nH]c2c1 (stereo not given) | -14&-14
COC(=O)CCN1CC(OCc2cccc(OC)c2)CN(C(=O)CCc2cccs2)CC1=O (stereo not given) | -1
Cc1cc2cc(CNC(=O)C3CC3)ccc2n1C | -11
Cc1cc(NC(=O)Cn2ccc(-c3ncnn3C)n2)n(C2CCCCC2)n1 | 38&38
O=C1CCCCCN1C(=O)c1ccc(Cl)cc1 | 10
COC(=O)C(C1CCS(=O)(=O)C1)S(=O)(=O)c1ccccc1 (stereo not given) | -2
COC(=O)c1ccc(COc2cccc3c2CCN(Cc2ccccc2)C3=O)o1 | -14
c1ccc2c(c1)ncn2CCN1CCCCC1 | -6
O=P(O)(c1ccccc1)c1nc2c(s1)CCCC2 | 4
O=C(CCSCc1ccccc1F)N1CCc2ccccc21 | -9

Grouped by structure: the entries above containing fluorine.
compound | HCMV NEC inh
CSc1nnc(CSc2ncccn2)n1-c1cccc(C(F)(F)F)c1 | 4
O=C(CCSCc1ccccc1F)N1CCc2ccccc21 | -9

Remaining list, next part:
compound | HCMV NEC inh
O=C(/C=C\c1ccccc1)Nc1c(-c2cccs2)nc2ccccn12 | -30
COc1ccc2c3c([nH]c2c1)[C@H]1C[C@H]2[C@H](C[C@@H](O)[C@H](OC)[C@H]2C(=O)O)CN1CC3 | -21
Cc1ccc(SCC(=O)N2CCCCC2)cc1 | 4&-2
CCCCC[C@@](C)(O)/C=C/[C@H]1[C@H](O)CC(=O)[C@@H]1C/C=C\CCCC(=O)O | -17&-17
O=C1Cc2ccccc2N1c1ccccc1 | -4
O=C(O)c1ccccc1NS(=O)(=O)/C=C/c1ccccc1 | -24
Cc1cc(NCCCN2CCOCC2)n2c(nc3ccccc32)c1C#N | -14
C=C1C2(C(=O)N3CCCC(COC)C3)CCC(C2)C1(C)C (stereo not given) | -19
C=CCc1cccc(C=NC2=C(C#N)CCC2)c1O | -7
CCOC(=O)c1nn(Cc2ccccn2)c2c1CN(Cc1ccc(NC(C)=O)s1)CC2 | -9
C[C@H]1CC2C3CCC4=CC(=O)C=C[C@]4(C)[C@@]3(F)[C@@H](O)C[C@]2(C)[C@@]1(O)C(=O)COP(=O)(O)O (stereo not given in full) | -90
CCCc1c(C)c2ccc(OCC(=O)OC)cc2oc1=O | -22
COc1ccc(-c2nn(-c3ccccc3)cc2/C=C\C(N)=O)cc1 | -47
COc1cc(N(C)CC2COc3ccccc3O2)nc(N)n1 (stereo not given) | 1&1
CCCc1cn(C2CCN(C(=O)C(C)N3CCCC3)CC2)nn1 (stereo not given) | -13
O=C1CS(=O)(=O)CN1c1ccc(Cl)c(Cl)c1 | -13
CCOC(=O)C(CCc1ccccc1)NC1CCCN2CCCC(C(=O)O)N2C1=O (stereo not given) | -12
O=C(NC1CCCCCC1)c1ccc(-n2cnc3cccnc32)cc1 | 5
CC(C)OC(=O)CCC/C=C\C[C@@H]1[C@@H](/C=C/C(O)COc2cccc(C(F)(F)F)c2)[C@H](O)C[C@@H]1O (stereo not given in full) | -59
C/C(=C/C(=O)O)C(=O)Nc1sc2c(c1C#N)CCCC2 | -2
O=C(CCC1CCCCC1)NC1=NCCS1 | -12
Cc1cc(NC(=O)CCOc2ccccc2)no1 | -5
COc1ccccc1OC(C)c1nc(Cc2cccc(C(F)(F)F)c2)no1 (stereo not given) | -11
CCOC(=O)CC(=O)N1CCSC1COc1ccccc1OC (stereo not given) | -3&-40
CC(C)n1cnc2c(NCc3ccccc3)nc(NCCO)nc21 | -10
CCOC(=O)C1C(=O)C=C(c2ccco2)CC1c1cccs1 (stereo not given) | -65
O=S(=O)(c1ccc(F)cc1)N1CCCc2cccc(O)c21 | -6
O=C(O)c1cc(=O)c2ccc(Cl)cc2[nH]1 | -4
Cc1nn(C)cc1-c1ccnc(N2CCN(Cc3ccc(F)cc3)C(=O)C2)n1 | -8
CCN1C(=O)/C(=C\c2ccc(N(CC)CC)cc2)SC1=S | 0
Cc1ccnc(S(=O)(=O)Cc2ccc(Cl)cc2)n1 | -2
COc1ccc(S(=O)(=O)n2cnc3cc(C)c(C)cc32)cc1OC | 1
C=CCn1nc(C(=O)N2CCSCC2)c2c1CCC(N1CCOc3ccc(Cl)cc3C1)C2 (stereo not given) | -1
CCOC(=O)c1sc(NC(=O)COc2ccc(Cl)cc2)nc1C | 3
COc1ccc2oc(=O)c(-c3csc(C)n3)cc2c1 | -17
Cc1cc(O)c2c(-c3ccccc3)cc(=O)oc2c1 | -24

Six compounds picked at random from those above:
compound | HCMV NEC inh
Cc1ccc2nc(C3CCCN3c3ncc(C)c(-c4cnn(C)c4)n3)[nH]c2c1 (stereo not given) | -14&-14
O=C(O)c1ccccc1NS(=O)(=O)/C=C/c1ccccc1 | -24
CCOC(=O)c1nn(Cc2ccccn2)c2c1CN(Cc1ccc(NC(C)=O)s1)CC2 | -9
O=C(/C=C\c1ccccc1)Nc1c(-c2cccs2)nc2ccccn12 | -30
CCOC(=O)c1sc(NC(=O)COc2ccc(Cl)cc2)nc1C | 3
C/C(=C/C(=O)O)C(=O)Nc1sc2c(c1C#N)CCCC2 | -2

(next part)
compound | HCMV NEC inh
CCOC(=O)c1c(NC(=O)CSc2nnc(C)s2)sc2c1CCCCC2 | 3
CC1(C)C(=O)OC(c2ccc(F)cc2)C(C)(C)C1=O (stereo not given) | -16
O=C(CSc1nnc(CNC(=O)c2ccccc2)n1-c1ccccc1)c1ccccc1 | -20
O=C(c1ccc2c(c1)CCCC2)N1CCN(c2ccccc2)CC1 | -1
C=C(C)Cn1c(C(C)O)nc2ccccc21 (stereo not given) | -4
CC(=O)Nc1ccc(C(=O)Nc2ccccc2N)cc1 | -13
O=C(OCc1nc2ccccc2s1)c1ccc(N2C(=O)CCC2=O)cc1 | -18
O=C(CSc1nc2c(c(=O)n1-c1ccccc1)SCC2)OCc1ccccc1 | -7
Cc1ccc(C(=O)Nc2cccc(C(F)(F)F)c2)cc1Nc1nc(-c2cccnc2)nc2c1cnn2C | -8
O=c1cc(CO)oc(C(Nc2ccccn2)c2ccc(F)cc2)c1O (stereo not given) | -8
CCCC(=O)Nc1nnc(SCC(=O)Nc2ccccc2C(F)(F)F)s1 | -18
COC(=O)COc1ccc2c(-c3ccccc3)cc(=O)oc2c1 | -29
Cc1ccc(C2C3=C(CCCC3=O)OC3=C2C(=O)CCC3)o1 | -2
O=C(C=Cc1ccc(O)c(O)c1)OCCc1ccccc1 | -3
CC1SC(C)C(=O)N(CC(=O)NC2CCCCC2)C1=O (stereo not given) | -3
O=C(O)CCn1cc(C(F)(F)F)ccc1=O | -12
Clc1ccc2nc(N3CCOCC3)nc(-c3ccccc3)c2c1 | -2
Cc1ccc(C)n1NC(=O)c1ccncc1 | -2
Cc1n[nH]c(C)c1Cc1ccc(O)cc1 | -5
NC(=O)c1c(N)sc2c1CCCC2 | -27
COc1cccc2ccc(-c3ccc(C(C)=O)cc3)nc12 | -124
O=C(CSC(F)(F)F)Nc1ccc(I)cc1 | 5
O=S1(=O)CCN(N2CCCCC2)CC1 | -3
CC(C)(C)NC(=O)[C@H]1C[C@H]2CCCC[C@H]2CN1C(=O)C12CC3CC(CC(C3)C1)C2 | -8

5 entries already listed, ordered by molar mass, lowest first.
compound | HCMV NEC inh
CC(=O)Nc1ccc(C(=O)Nc2ccccc2N)cc1 | -13
C=C1C2(C(=O)N3CCCC(COC)C3)CCC(C2)C1(C)C (stereo not given) | -19
COC(=O)C(C1CCS(=O)(=O)C1)S(=O)(=O)c1ccccc1 (stereo not given) | -2
Cc1ccc2nc(C3CCCN3c3ncc(C)c(-c4cnn(C)c4)n3)[nH]c2c1 (stereo not given) | -14&-14
Cc1ccc(C(=O)Nc2cccc(C(F)(F)F)c2)cc1Nc1nc(-c2cccnc2)nc2c1cnn2C | -8

(further entries)
compound | HCMV NEC inh
COc1cc(C)ccc1C(=O)N1CCC(Cn2cc(C3CC3)nn2)CC1 | -7
COc1cccc(C(=O)NC(Cc2ccccc2)C(=O)O)c1 (stereo not given) | -5
O=C(Nc1cccc(Cl)c1)c1cc(S(=O)(=O)N2CCCCCC2)ccc1F | 7
C[C@H]1O[C@@H](O[C@H]2[C@@H](O)C[C@H](O[C@H]3[C@@H](O)C[C@H](O[C@H]4CC[C@@]5(C)[C@H](CC[C@@H]6[C@@H]5C[C@@H](O)[C@]5(C)C(C7=CC(=O)OC7)CC[C@]65O)C4)O[C@@H]3C)O[C@@H]2C)C[C@H](O)[C@@H]1O (stereo not given in full) | -21
CC(C)N1C(=O)/C(=C2/C(=O)N(CC(=O)O)c3ccc(Br)cc32)SC1=S | -3
Cc1ccc(C)c(NC(=O)CSc2nnc(NC(=O)c3ccccc3F)s2)c1 | -24
C=CC(C)(O)CCC1[C@@]2(C)CCCC(C)(C)C2CC[C@@]1(C)O (stereo not given in full) | -23
COc1cc(S(=O)(=O)N2CCN(c3ccccc3OC)CC2)c(C)cc1C | 2
CC(=O)Nc1cccc(NC(=O)CSc2ncnc3ccccc23)c1 | -9
Fc1ccc(C(c2ccc(F)cc2)N2CCN(CC=Cc3ccccc3)CC2)cc1 | -1
COCCn1c(=NC(=O)c2ccc(Br)s2)sc2cc(NC(C)=O)ccc21 | -9
O=C(Nc1ccc(-c2csc(Nc3cccc(C(F)(F)F)c3)n2)cc1)c1ccccc1 | -2
CSc1ccc([C@H]2CN3CCC[C@H]3c3ccccc32)cc1 | -9
CN(Cc1ccccc1)C(=O)CCn1c(=O)oc2ccccc21 | 0
Cc1cc2c(=O)n(Cc3nc4ccccc4[nH]3)cnc2s1 | -9
COc1cccc2ccc(-c3ccc(C(=O)N(C)C)cc3)nc12 | -84
Cc1ccc(C(C)CCN2CCc3c(c(C(=O)N4CCC(O)CC4)nn3CCc3ccccc3)C2)o1 (stereo not given) | -1
CC(C)c1cc(C(=O)N2CCCC(c3ccc(Cl)cc3)C2)on1 (stereo not given) | -6
Cc1ccsc1-c1cccc(C(=O)c2nccn2C)c1 | -33
Cc1cccc2sc(NC(=O)c3ccccc3)nc12 | -5
O=S(=O)(c1ccccc1)N(CC(F)(F)F)c1ccc(C(O)(C(F)(F)F)C(F)(F)F)cc1 | -2&15&-19&-19
c1ccc(-c2nccn2Cc2nc(-c3ccccn3)no2)cc1 | -11
CCOc1ccc(-c2nc3ccccc3s2)cc1 | -8
Cc1cc(NC(=O)CSC2=NCCS2)no1 | -8
COC(=O)c1cccc2c1-c1ccccc1/C2=N/O | -19
COc1ccc(F)cc1-c1ccc2ccccc2n1 | -7
CC1(C)CC(=O)c2cc3c(N)c(C(N)=O)sc3nc2C1 | -38
CCCCC1C(=O)CC[C@H]2[C@@H]1CC(=O)[C@@H]2CCCCCCC(=O)O (stereo not given in full) | -12&-12
Cc1ccc(C(=O)Nc2ccc(S(=O)(=O)N3CCCCC3c3cccnc3)cc2)cc1 (stereo not given) | -1
Cc1cc2cc(CNC(=O)CC3CCCCC3)ccc2[nH]1 | -16
O=S(=O)(/C=C/c1ccccc1)N1CCCCC1 | -22
NC(=O)CCSC(=S)N1CCOCC1 | -26
O=C(Cc1ccccc1Nc1c(Cl)cccc1Cl)Oc1ccc(-c2cc(=S)ss2)cc1 | -27&-27
CCOc1ccc(-c2csc(/C(C#N)=C/Nc3ccc4c(c3)OCO4)n2)cc1 | 5
CN(Cc1cnc2ccccc2n1)C(=O)Nc1n[nH]c(-c2ccco2)n1 | -15&-15
O=C(Nc1ccc2sccc2c1)c1cccc(N2C(=O)CCC2=O)c1 | -12
CCCCC[C@H](O)/C=C/[C@@H]1[C@@H](C/C=C/CCCC(=O)O)[C@@H](O)C[C@H]1O | 8&8&4&4
CCN1CCN(CC(O)COc2ccc(C(=O)OC)cc2)CC1 (stereo not given) | 2
NC(=O)c1ncn(C2O[C@H](CO)[C@@H](O)[C@H]2O)c1N (stereo not given in full) | -52
Cn1cnc2c(F)c(Nc3ccc(Br)cc3Cl)c(C(=O)NOCCO)cc21 | -7&5&12&2&4&-2&-16&-10
Cc1ccc(C(=O)C2=C(O)C(=O)N(CC3CCCO3)C2c2cccc(Cl)c2)o1 (stereo not given) | -24
Cc1ccc(-c2cc(C(=O)N3CCC[C@H]3CO)cc(S(=O)(=O)N3CCOCC3)c2)s1 | -15
COCc1ccc(C(=O)N2CCc3c(cc(-c4ccncc4)c(=O)n3CCN3CCCCC3)C2)o1 | -14
BrCc1ccc(-c2noc(-c3ccncc3)n2)cc1 | -37
CCOC(=O)c1c(C)nn(-c2ccnc3cc(Cl)ccc23)c1C | -4
O=C(O)C(Cc1ccccc1)NS(=O)(=O)c1cccs1 (stereo not given) | 0&-13
C=CCN1C(=O)/C(=C2/C(=O)N(CCC)c3ccc(Br)cc32)SC1=S | -3
O=C(CCN1C(=O)/C(=C/c2ccccc2)SC1=S)Nc1ccccc1 | -16
Cc1ccc(C(=O)N2CCNC(=O)C2Cc2ccccc2)cc1F (stereo not given) | -11
O=C1CCc2c(ccc3ccccc23)O1 | -7&-20
CN(CCOc1ccc(-c2ccc3c(c2)OCO3)cc1C(C)(C)C)CC(=O)O | -6
CN(C)CCCNC(=O)[C@@H]1C[C@H](CN2CCOCC2)CN(CCc2ccccc2)C1 | -9
O=C(O)CCCNC1=NCCS1 | -9
COCC(=O)NCCc1nc2ccccc2n1Cc1cc(C)ccc1C | -18
COc1cccc2cc(-c3nc4ccccc4s3)c(=O)oc12 | -9
